High-throughput results: PubChem, several laboratories
RecA intein inh: blocks M. tuberculosis RecA intein splicing. P9WHJ3. cell-free RecA intein splicing, fluorescence. inhibition, %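 (about 9 µM by stock and volumes)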. 0.75% of 290,000 active. AID 2221; in the data active means inhibition above about 30%; inconclusive means no clear call, values can overlap the other calls;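 further: 0% = vehicle wells and 100% = reference inhibitor control wells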
Target sequence (P9WHJ3 whole entry, looked up): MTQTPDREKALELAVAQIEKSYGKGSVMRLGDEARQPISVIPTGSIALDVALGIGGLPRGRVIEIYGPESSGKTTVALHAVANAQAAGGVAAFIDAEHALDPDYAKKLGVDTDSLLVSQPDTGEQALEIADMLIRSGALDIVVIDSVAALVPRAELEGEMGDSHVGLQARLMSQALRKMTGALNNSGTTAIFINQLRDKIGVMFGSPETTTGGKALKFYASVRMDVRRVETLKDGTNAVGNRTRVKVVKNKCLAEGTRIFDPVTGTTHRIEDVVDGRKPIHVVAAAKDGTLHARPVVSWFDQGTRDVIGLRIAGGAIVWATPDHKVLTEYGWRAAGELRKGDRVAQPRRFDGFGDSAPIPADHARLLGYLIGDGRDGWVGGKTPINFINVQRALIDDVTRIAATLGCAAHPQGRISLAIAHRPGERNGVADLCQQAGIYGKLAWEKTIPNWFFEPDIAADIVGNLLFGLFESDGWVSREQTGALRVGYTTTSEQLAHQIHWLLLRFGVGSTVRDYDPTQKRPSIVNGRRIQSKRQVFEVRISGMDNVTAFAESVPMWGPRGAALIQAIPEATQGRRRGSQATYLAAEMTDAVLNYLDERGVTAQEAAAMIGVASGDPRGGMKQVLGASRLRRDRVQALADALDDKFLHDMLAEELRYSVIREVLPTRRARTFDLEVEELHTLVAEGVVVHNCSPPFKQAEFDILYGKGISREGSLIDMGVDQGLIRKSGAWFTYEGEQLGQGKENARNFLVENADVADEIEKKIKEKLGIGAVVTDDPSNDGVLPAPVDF
Mtb H37Rv: M. tuberculosis H37Rv growth inhibitors, H37Rv strain (AID 1626). M. tuberculosis H37Rv growth inhibition; higher % means a stronger effect. inhibition, % at 10 µM; hits with a dose series show IC50 in µM. 0.95% of 220,000 active;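 active means confirmed in a dose series; inconclusive means inhibition above 80% but not taken into the dose series; inactive means below 80% or under 30% at every dose of the series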;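 further: bacteria incubated seven days before Alamar blue readout; 0% = bacteria only wells and 100% = bacteria with antibiotic wells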
YopH inh: inhibitors of Yersinia enterocolitica YopH tyrosine phosphatase; fluorescence Ex485/Em525; inhibition, %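 (about 10 µM by stock and volumes)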; 0.16% of 140,000 active;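 active means inhibition of 50% or more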;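 further: controls were vehicle for no effect and minimum signal wells for full effect; inactives centre near -20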
Mtb betalactam: beta-lactam sensitization of Mtb H37Rv; M. tuberculosis H37Rv growth with meropenem, percent inhibition; hits of this screen are not shown here; inhibition, % at 25 µM; 0.27% of 330,000 active;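 active means about 74% or more and at least 40 points above the plate without the antibiotic, then above 30% in a dose series; inconclusive means first-round hits that could not be retested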;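 further: growth measured after seven days incubation then overnight dye step; 0% = bacteria only wells and 100% = bacteria with antibiotic; twin plates without the antibiotic show which effects depend on it; some results filed as inactive read as strong as hits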
Arbovirus inh: arbovirus infection inhibition | arbovirus infection cell-based antiviral screen | 0.37% of 200,000 active | AID 1251 | inhibition, % at 10 µM;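 active means inhibition from about 30%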;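 further: bluetongue infection of BSR cells; cell survival read as ATP light after 72 h; 0% = infected wells without compound and 100% = uninfected wells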
Arbovirus inh repeat: recorded beside Arbovirus inh, whose call it bears; inhibition, %; measured here: 10K subset replicate screen; many hits read low in the repeat;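 first of two repeat runs on a subset; 0% = infected and 100% = uninfected wells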
The depositor's hits bear a star; ? = inconclusive; . = not tested or not shown. Some of the compounds tested, so the mix of outcomes need not match the whole.

SMILES	RecA intein inh	Mtb H37Rv	YopH inh	Mtb betalactam	Arbovirus inh	others
O=S(=O)(Nc1ccc(F)cc1)N1CCOCC1	-2.9	.	.	-5	.
CCN(CC)S(=O)(=O)c1ccc(C)c(NC(=O)CSc2nc3ccccc3[nH]2)c1	5.5	4%	-15	6	6
Cn1c(=O)c2sccc2n2c(CCCC(=O)Nc3ccccc3)nnc12	0.1	.	.	-2	.
COc1ccc(Cl)cc1N/C(N)=N/c1nc(CSc2ccc(C)cc2)cc(=O)[nH]1	-1.0	4%	-21	-4	-11
Cc1ccc(-c2ccc(SCC(=O)N3CCCc4ccccc43)nn2)cc1	1.0	6%	-3	6	-25
COc1ccc(CN(C)C(=O)CCN(c2ccccc2)S(=O)(=O)c2ccc(C)cc2)c(OC)c1	13	.	.	-16	.
O=C(O)c1ccccc1C(=O)Nc1ccc(S(=O)(=O)Nc2ccc(F)cc2)cc1	1.6	.	.	4	.
N=c1c2c(-c3ccccc3)c(-c3ccccc3)n(Cc3ccco3)c2ncn1CCCn1ccnc1	5.3	40%	2	93	-42
CCOC(=O)c1c(C)n(CCOc2ccccc2)c2ccc(O)cc12	0.4	.	.	-4	.
Cc1nc2ccc(Cl)cc2nc1C	3.1	-12%	.	-2	.
CN(CC(=O)Nc1c(Cl)cccc1Cl)C(=O)Cc1ccc(S(=O)(=O)N2CCOCC2)s1	-0.9	.	.	-11	.
O=C(CSc1nnc(-c2ccncc2)n1-c1ccccc1)Nc1ccc(C(=O)O)cc1	-2.2	-2%	.	-7	3
C[C@H](NC(=O)[C@@H]1CSC2c3ccccc3C(=O)N21)C(=O)NCc1c(F)cccc1Cl (stereo not given in full)	2.0	.	.	0	.
CCCCOC(=O)Nc1ccc(S(=O)(=O)Nc2onc(C)c2C)cc1	0.1	.	.	-9	.
Cc1cc(CNC(=O)Cc2c(F)cccc2Cl)nn1C	-2.3	5%	-5	-6	3
O=C(O)[C@H]1CCCC[C@H]1C(=O)Nc1ccc(S(=O)(=O)N2CCOCC2)cc1	-8.8	.	.	-8	.
CCN(CC)c1ccc(/C=N/N2CCN(Cc3cccc4ccccc34)CC2)c(O)c1	-0.6	20%	-47	62	6
COc1ccc(-c2nc3cc([N+](=O)[O-])ccc3o2)cc1OC	.	6%	.	-3	-3
O=C(COC(=O)c1ccc(F)cc1F)NC1CC1	1.9	2%	.	9	14
COC(=O)c1ccccc1OC(=O)c1ccc(Br)o1	38*	31%	-9	83	-2

For convenience, 4 of the compounds above:
SMILES	RecA intein inh	Mtb H37Rv	YopH inh	Mtb betalactam	Arbovirus inh	others
CCN(CC)c1ccc(/C=N/N2CCN(Cc3cccc4ccccc34)CC2)c(O)c1	-0.6	20%	-47	62	6
COc1ccc(-c2nc3cc([N+](=O)[O-])ccc3o2)cc1OC	.	6%	.	-3	-3
O=C(COC(=O)c1ccc(F)cc1F)NC1CC1	1.9	2%	.	9	14
COC(=O)c1ccccc1OC(=O)c1ccc(Br)o1	38*	31%	-9	83	-2

Next structures.
SMILES	RecA intein inh	Mtb H37Rv	YopH inh	Mtb betalactam	Arbovirus inh	others
O=C(Nc1ccc2c(c1)C(=O)N(c1ccccc1)C2=O)c1cccs1	-1.2	-6%	.	9	-15
C[C@H]1C=C(C(=O)O)O[C@@H](OCc2ccc(CO)cc2)C1	-1.8	-2%	.	-3	.
CC(NC(=O)CSc1nc(=O)cc(N)n1-c1ccccc1)c1ccccc1 (stereo not given)	1.5	-4%	-13	0	6
COC(=O)c1cc(S(=O)(=O)NCC2CCN(Cc3ccc(Cl)cc3)CC2)c[nH]1	2.4	.	.	8	.
N/C(=N\NC(=O)c1sccc1OCc1ccc(Cl)cc1Cl)c1ccccn1	0.6	?	.	98	-21
C/C(Cc1ccccc1)=N\NC(=O)CCCCCC(=O)N/N=C(\C)Cc1ccccc1	-2.3	-6%	25	-14	-4
CN(C)S(=O)(=O)c1cccc(NS(=O)(=O)c2ccc(Cl)s2)c1	-0.5	-6%	-29	1	4
O=C(COC(=O)c1ccccn1)NC12CC3CC(CC(C3)C1)C2	2.2	-1%	-28	3	4
COc1ccc(N(CC(=O)NC2CCCC2)C(=O)Cn2nnc(-c3ccc(F)cc3)n2)cc1	-0.6	.	.	4	.
O=C1CCCc2nc3c(cc21)C(O)Oc1c-3ccc2ccccc12 (stereo not given)	-6.6	7%	.	27	3

Of the compounds above, these contain a furan ring, fused or not.
SMILES	RecA intein inh	Mtb H37Rv	YopH inh	Mtb betalactam	Arbovirus inh	others
N=c1c2c(-c3ccccc3)c(-c3ccccc3)n(Cc3ccco3)c2ncn1CCCn1ccnc1	5.3	40%	2	93	-42
COC(=O)c1ccccc1OC(=O)c1ccc(Br)o1	38*	31%	-9	83	-2

Carrying on:
SMILES	RecA intein inh	Mtb H37Rv	YopH inh	Mtb betalactam	Arbovirus inh	others
O=C(Cn1c(-c2ccccn2)nc2ccccc21)N/N=C/c1ccccn1	0.7	7%	.	-10	15
COCc1cc(NCc2ccc(Cl)cc2)nc(C)n1	3.8	.	.	-2	.
Cc1ccc(C(=O)N/N=C\c2ccc3c(c2)OCO3)cn1	-2.8	.	.	5	.
CC(C)CC(=O)Nc1nc2ccc(S(=O)(=O)N3CCOCC3)cc2s1	-5.4	10%	-31	-12	-6
Cc1ccccc1OCc1nc2ccccc2c(=O)n1N	-5.3	9%	12	-2	-1
CCC(=O)N1CCc2cc(OC)c(OC)cc2C1COc1ccccc1OC (stereo not given)	-1.1	1%	.	.	2
O=C(CNS(=O)(=O)c1ccccc1)OCC(=O)c1ccc(OC(=O)c2ccccc2)cc1	4.6	3%	-22	.	6
COc1ccc(Cn2cnc3c([N+](=O)[O-])c(C)c(C)cc32)cc1	5.4	0%	-36	3	1
Cc1ccc(C(=O)N2CCC(C(=O)NC3CCCC3)CC2)cc1	-3.0	.	.	-2	.
CN1C(=O)C(Cc2ccc(OCc3ccccc3)cc2)C(=O)N(C)C1=O	-3.0	.	.	1	.
COc1ccc(CN2C(=O)c3cccnc3C2=O)cc1S(=O)(=O)N1CCOc2ccc(C)cc21	-1.7	.	.	-4	.
CCOC(=O)N1CCN(C(=O)C(NS(=O)(=O)c2cccc3nsnc23)c2ccccc2)CC1 (stereo not given)	-1.8	-6%	36	-8	6
Cc1ccsc1CN(C)C(=O)CCc1nnc(COc2ccccc2)o1	2.0	-9%	.	-6	10
CC(C)c1ccc(NC(=O)c2ccc(NC3=NC4CS(=O)(=O)CC4S3)cc2)cc1 (stereo not given)	-3.3	.	.	-3	.
CCN(CC)C(=O)CSc1nc(O)cc(=O)n1-c1ccccc1OC	2.4	4%	-39	-1	.
CCCn1c(=O)c2ccccc2n2c(SCC(=O)/C(C#N)=C(\C)N)nnc12	-8.0	-5%	-24	4	13
COc1ccc(CCNC(=O)c2sc(=S)n(C)c2N)cc1	-5.2	4%	-30	-10	1
CC(C)(C)NC(=O)CN(C(=O)CSc1nnc(COc2ccccc2)o1)c1cccc(F)c1	1.0	5%	-32	-6	-11
Cc1c(C(=O)NCc2ccc3c(c2)OCO3)sc2nc(-c3ccccc3)cn12	-1.4	2%	-13	-5	-4	Arbovirus inh repeat=-13
CCOc1ccc(Oc2cc(C)nc(SC)n2)nn1	-1.9	-1%	36	0	2
CC(=O)OC(C(=O)NCc1ccco1)c1cccnc1 (stereo not given)	-2.3	-8%	-37	-5	7
COc1ccccc1N1CCN(CCCCCCOc2ccc(F)cc2)CC1	2.4	3%	-17	1	19
COC(=O)c1ccc(CSc2nnc3sc4ccccc4n23)o1	0.1	8%	-32	-7	4
Cc1nc2ccccc2c(=O)n1NC(=O)c1ccc(Cl)cc1	1.5	.	.	4	.
O=C(CC12CC3CC(CC(C3)C1)C2)NC(=S)Nc1ccc(CN2CCOCC2)cc1	-4.7	11%	.	11	0
COC(=O)c1ccc(NC(=O)Nc2ccccc2F)cc1	4.4	7%	.	2	3
Cc1noc(C)c1COc1ccc(C(=O)Nc2ccccc2)cc1	.	-2%	.	-2	-7
C=CCOC(=O)C1=C[C@H](c2csc3ccccc23)C[C@H](OCc2ccc(CO)cc2)O1	11	5%	.	-14	.
CCC(=O)N1CCC(C(N)=O)(N2CCCCC2)CC1	-4.6	-3%	.	-17	1
CC(C)Oc1ccc(CN2CCCC(CO)(Cc3ccc(F)cc3)C2)cc1 (stereo not given)	-0.7	.	.	-2	.
CCOc1ccc(N(CC(=O)NCc2ccco2)S(=O)(=O)c2ccc(OC)c(OC)c2)cc1	-0.4	-1%	17	-14	13	Arbovirus inh repeat=-2
O=Cc1c(N2CCCCCC2)nc2ccccn2c1=O	0.1	5%	-17	-10	1
C/C(=N\OC(=O)c1ccc(Cl)cc1)c1sc(-c2ccccc2)nc1C	-1.5	25%	-51	22	-1
C=CCNc1nc(SCC=C)nc2ccsc12	5.3	.	-45	-1	7
CC1(C)CC(=O)c2cnc(NC3CC3)nc2C1	-6.3	-4%	.	5	3
COc1ccc(Cl)cc1CSc1n[nH]c(C)n1	0.1	-4%	-21	-1	-1
CN1CCN(C(=O)c2ccccc2NC(=O)c2ccc(C(C)(C)C)cc2)CC1	0.3	.	.	0	.
Cc1cc(C)nc(SCC(N)=O)n1	3.1	17%	.	-4	.
CCCCOc1ccc(C(=O)NCC(=O)N2CC=C(c3ccccc3)CC2)cc1	-0.5	.	.	-2	.
C/C=C/C=N/NC(=O)CN(c1ccc(Br)cc1)S(=O)(=O)c1ccccc1	2.8	-2%	-24	-5	-4
Cc1cc(NC(=O)Nc2cc(Cl)sc2Cl)no1	-0.7	.	.	-11	.
O=C(CC1CCCCC1)NCc1ccc(Cl)cc1	1.6	.	.	4	.
O=C(O)/C=C/C(=O)Nc1ccc(S(=O)(=O)N2CCCC2)cc1	1.4	-10%	.	-1	15
CC1(C)CC(=O)N(c2cccc(Cl)c2)C(=O)C1	3.2	.	.	0	.
NC(=O)C1CCN(CCC(=O)Nc2ccc(Br)cc2)CC1	1.0	-1%	2	-8	14
CS(=O)(=O)c1ccc(NC(=O)CCN2C(=O)C3CCCCC3C2=O)cc1 (stereo not given)	7.5	.	.	-10	.
Cc1ccc(NC(=S)NC2CC3CCC(C2)N3Cc2ccco2)cc1C (stereo not given)	2.9	-2%	-35	4	11
CCOc1ccccc1NC(=O)C1CCCN(S(=O)(=O)c2cccc3cccnc23)C1 (stereo not given)	1.1	1%	2	4	8	Arbovirus inh repeat=5
O=C(NCCCN1CCOCC1)c1ccccc1NS(=O)(=O)c1ccc(Br)cc1	0.1	5%	.	1	11
C=CCOC(=O)C1=C(C)NC(C)=C(C(=O)OCC=C)C1c1ccc(C)o1	1.0	0%	.	-7	.

(more compounds)
SMILES	RecA intein inh	Mtb H37Rv	YopH inh	Mtb betalactam	Arbovirus inh	others
O=C(CN1C(=O)c2ccccc2S1(=O)=O)N1CCN(c2cccc(Cl)c2)CC1	-1.0	-3%	-27	-8	.
CC1c2nc3ccccc3n2C(CC(=O)NC2CC2)C(=O)N1Cc1ccccc1 (stereo not given)	1.0	-3%	.	2	6
COC(=O)c1ccc(N2CCOCC2)c(NC(=O)c2ccc3c(c2)OCCO3)c1	0.2	.	.	-15	.
Cn1c(=O)c(Nc2ccc(O)cc2)c2c3c(cccc31)C(=O)c1ccccc1-2	22	12%	-1	30	-38
O=C(NC1CCCCC1)NC1CCN(S(=O)(=O)c2ccc3c(c2)OCCO3)CC1	1.1	-4%	-43	2	-15
Cc1ccc(NC(=O)c2ccco2)c(NC(=O)c2ccccc2C)c1	-4.9	.	.	-4	.
Cc1occc1-c1nnc(SCC(=O)c2ccc(F)cc2)o1	1.6	0%	-15	-3	-5
c1ccc(-c2nnc(OCc3cccnc3)c3ccccc23)cc1	2.3	-5%	.	1	-1
O=c1[nH]c(C2CCCN(S(=O)(=O)c3ccccc3)C2)nc2c1nnn2Cc1ccccc1F (stereo not given)	3.9	-5%	-24	-11	0
COc1ccc(N(S(=O)(=O)c2ccccc2)S(=O)(=O)c2ccccc2)c(N)c1	-2.8	.	.	12	.
Cc1ccc(S(=O)(=O)c2c(C)cc(C)nc2Cl)cc1	-0.9	1%	-30	-7	11
COc1ccc2[nH]c(=O)c(CN(C3CCCCC3)C(c3nnnn3Cc3ccco3)C(C)C)cc2c1 (stereo not given)	33*	.	-4	20	8
O=S1(=O)N=C(N/N=C/c2ccccn2)c2ccccc21	11	5%	-9	10	-17
O=S(=O)(c1cccc(S(=O)(=O)N2CCN(c3ncccn3)CC2)c1)N1CCOCC1	-2.4	-3%	22	-8	-2
CCOC(=O)CC1=C(C(=O)OCC)C(c2cccs2)C(C#N)=C(N)O1 (stereo not given)	0.8	2%	9	-8	-4
Cc1c(C(=O)OCC(C)C)[nH]c2c1C(=O)CC(c1cccs1)C2 (stereo not given)	0.0	-1%	-10	2	-10
O=C(C(c1ccccc1)c1ccccc1)N1CCN(Cc2ccco2)CC1	6.6	1%	-27	8	6
